# Screening data (PubChem)
# Rango-impB inh: Rango-importin beta binding inhibition. Q14974. Rango CFP/YFP FRET sensor + importin beta, 45 min. Potency, µM (highest dose often 92.2 µM), without a hit: at the top dose inhibition of complex formation. actives 0.031% (n = 340,000). AID 540263; active = rising FRET ratio curve, often small or poorly fitted; inconclusive = mostly compound fluorescence or quenching in the first reads; inactive = flat curves in all reads;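 further: potency means the concentration at half of the fitted maximal effect; 0% = DMSO wells and 100% = buffer wells lacking importin beta; nearly all actives have a fitted effect of over 15% in size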
# Target sequence (Q14974 whole entry, looked up): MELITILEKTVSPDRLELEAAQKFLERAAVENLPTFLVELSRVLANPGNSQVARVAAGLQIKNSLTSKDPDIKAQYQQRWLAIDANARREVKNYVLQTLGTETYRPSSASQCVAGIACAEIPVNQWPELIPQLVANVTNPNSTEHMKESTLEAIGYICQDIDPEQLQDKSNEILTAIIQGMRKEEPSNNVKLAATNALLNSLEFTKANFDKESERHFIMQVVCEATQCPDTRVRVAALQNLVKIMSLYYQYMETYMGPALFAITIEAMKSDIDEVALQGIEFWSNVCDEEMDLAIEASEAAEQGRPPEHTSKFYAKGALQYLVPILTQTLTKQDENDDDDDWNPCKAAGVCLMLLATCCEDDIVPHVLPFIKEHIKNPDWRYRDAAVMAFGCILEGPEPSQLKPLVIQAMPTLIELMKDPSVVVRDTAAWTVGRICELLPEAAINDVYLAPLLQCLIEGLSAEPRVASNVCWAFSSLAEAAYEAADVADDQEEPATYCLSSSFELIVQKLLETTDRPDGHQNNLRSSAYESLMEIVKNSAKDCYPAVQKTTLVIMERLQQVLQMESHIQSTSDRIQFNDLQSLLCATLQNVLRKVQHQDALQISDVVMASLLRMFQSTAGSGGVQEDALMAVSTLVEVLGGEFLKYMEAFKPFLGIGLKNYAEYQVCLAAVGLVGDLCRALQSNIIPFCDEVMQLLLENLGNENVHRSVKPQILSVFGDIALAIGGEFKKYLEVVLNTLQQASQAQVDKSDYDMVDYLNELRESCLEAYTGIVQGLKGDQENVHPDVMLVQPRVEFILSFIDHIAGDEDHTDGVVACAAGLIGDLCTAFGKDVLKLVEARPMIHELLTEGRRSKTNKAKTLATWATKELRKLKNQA
#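 FRET biosensor (snurportin 1 IBB flanked by EYFP and cerulean), 50 nM, with compound 5 min, then 0.125 microM importin beta in PBS, 1 mM DTT, 0.02% Tween-20, 0.1% BSA. CFP/YFP ratio read after 45 min at room temperature; pre-read flags interference.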
# GLA inh pH 4.5: alpha-galactosidase A (human) inhibition, pH 4.5; P06280; purified enzyme, 4-MU-alpha-Gal fluorescence, pH 4.5; activity change, negative = inhibition, % at 105 µM; 230,000 tested, under 10 active; AID 1467; inconclusive = small, poorly fitted or top-dose-only inhibition, or a rising curve; inactive = flat fitted curve, though single readings scatter; no compound was filed as active;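 further: 0% = full activity with enzyme and -100% = basal without enzyme; dose as in the result columns while the protocol names 77 µM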
# Rango dissoc inh: prevents RanGTP from dissociating the Rango-importin beta complex. O95149+P62826. Biochemical FRET Rango-importin beta, RanGTP-induced dissociation. Potency, µM (top dose mostly 46.1 µM), inactives show at the top dose activity change, negative = inhibition. actives 0.071% (n = 340,000); active means falling FRET ratio curve, often poorly fitted, with flat reads before Ran was added; inconclusive means other falling curves, or compound fluorescence or quenching; inactive means flat or rising ratio curve;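 further: potency means the concentration at half of the fitted maximal effect; % of control where 0% means no effect; nearly all actives have a fitted effect of over 45% in size; -100% = wells without RanGTP and RCC1; the record marks most hits as doubtful in a second field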
#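 Two FRET readings bracket the reaction: one 5 min after compound meets Rango–importin beta, another 45 min after RanGTP-RCC1 (0.6 uM Ran, 0.2 uM RCC1, 2 mM GTP) is added. Only the second defines inhibition.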
# miR-21 reporter: miR-21 reporter, rising signal; HeLa miR-21 FLuc reporter, luciferase, 48 h; Potency, µM (top dose mostly 38.3 µM), for the others: at the top dose reporter change, positive = more light; 340,000 tested, under 10 active; AID 2288; active = well fitted rising curve with a large enough effect; inconclusive = small, poorly fitted or top-dose-only effect; inactive = no such curve, though single readings can be large or run the other way;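 further: % of control where 0% means no effect; miR-21 action dims this reporter so a rising signal means less miR-21 action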
#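 HeLa cells stably expressing CMV-driven firefly luciferase with a downstream miR-21 binding sequence, endogenously expressing miR-21, were treated with titrations (up to about 40uM final) for 48 hours at 37 degree Celsius. Luciferase luminescence was read after lysis.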
# The depositor's hits bear a star; ? = inconclusive; . = not tested or not shown; & = joins results of further samples.
Rango-impB inh	GLA inh pH 4.5	Rango dissoc inh	miR-21 reporter	SMILES
0.5%	.	-13%	.	Cc1nc(SCC(=O)NCC2CCCO2)c2c(C)c(C)sc2n1 (configuration not stated)
-1.5%	.	0%	0%	Cc1nc2ccc(Br)cn2c1C(=O)N/N=C\c1ccccc1Cl
3.7%	-3	6%	-5%	CC1(C)CC2CC(C)(CN2C(=O)CN2C(=O)c3ccccc3C2=O)C1 (configuration not stated)
-0.6%	-7	9%	-37%	Cc1cc(NCc2ccccn2)n2ncc(-c3ccc(Cl)cc3)c2n1
.	-12	.	0%&2%	CCOC(=O)CC(NC(=O)Cn1nnc(-c2ccccc2C)n1)c1ccc(OC)cc1 (configuration not stated)
7.0%	12	13%	-40%	Cc1onc(NC(=O)c2ccc(Cl)cc2Cl)c1Br
-1.3%	.	-22%	.	COc1cccc(COC(=O)CCNC(=O)c2ccc(Cl)cc2)c1OC
-1.5%	2	-6%	12%	CCCN1CCC(=NNc2ccc(S(=O)(=O)N3CCOCC3)cc2[N+](=O)[O-])CC1
0.5%	-9	0%	-4%	Cc1ccc(N2C(=O)N(CC(=O)NC(c3ccccc3)c3ccccc3)C(=O)C2C)cc1 (configuration not stated)
0.4%	6	-12%	-5%	CC(C)(Oc1ccc(Cl)cc1)C(=O)Nc1ccc2oc(-c3ccncc3)nc2c1
0.0%	-1	12%	-29%	O=C(Cc1cccc2ccccc12)NNC(=O)Nc1ccc(Cl)cc1
-1.2%	-12	-12%	-9%	CCOC(=O)c1[nH]c(C)c(C(=O)N2CCN(C(=O)OCC)CC2)c1CC
2.7%	-12	18%	-28%	Cc1ccccc1NC(=O)C(=O)NCc1ccccn1
-1.1%	.	-8%	-13%	COc1ccc(-n2ncc3c2CC(C)(C)CC3NC(=O)C2CCN(C(C)=O)CC2)cc1 (configuration not stated)
-4.9%	.	?	.	COc1ccc(C2Nc3ccccc3C(=O)N2Cc2ccccc2)cc1OC (configuration not stated)
2.1%	-5	3%	-2%	CCC1SC2=NC(C)=C(C(=O)OCCOC)C(c3ccc(C(=O)OC)cc3)N2C1=O (configuration not stated)
-0.3%	.	-8%	7%	NC(=O)CC(NC(=O)c1ccccc1)c1ccc(N2CCN(c3ccccn3)CC2)c([N+](=O)[O-])c1 (configuration not stated)
-0.3%	.	4%	.	COc1ccc(OC)c(/C=C(\C)C(=O)c2c(C)cc(C)[nH]c2=O)c1
4.7%	.	9%	0%	O=C(c1ccc2[nH]c(=O)c(=O)[nH]c2c1)N1CCc2ccccc2C1
0.3%	2	2%	-42%	Cc1ccc(C(=O)CSc2nnnn2-c2ccccc2)o1
?	?	?	1%	Nc1c(C(=O)NCCN2CCOCC2)c2nc3ccccc3nc2n1-c1cccc(F)c1
-3.4%	.	-1%	.	CC1(C)SC(C)(C)N(C=O)C1C(=O)O (configuration not stated)
1.2%	-5	-4%	0%	C[C@]12CS(=O)(=O)C[C@H]1SC(=S)N2c1ccccc1
0.6%	.	0%	.	CCOc1ccc(NC(=O)CN(C)C(=O)c2cc(S(=O)(=O)N3CCCCCC3)ccc2OC)cc1OCC
2.9%	-5	-4%	-16%	Nn1c(SCC(=O)Nc2ccc3c(c2)OCO3)nnc1-c1ccccc1
-0.1%	.	30%	.	O=C(c1ccc(NS(=O)(=O)c2ccc(F)cc2)cc1)N1CCCCC1
-1.5%	.	0%	-1%	O=C(N/C(=C\c1cccnc1)C(=O)N1CCC(O)CC1)c1ccccc1
6.8%	.	2%	.	O=C1C=C(c2ccc(Br)c3ccccc23)C[C@@H](c2ccc3c(c2)OCO3)C1
0.3%	.	10%	-6%	CN(Cc1ccccn1)C(=O)c1ccc2nc(Cc3cccc(Cl)c3)oc2c1
-0.5%	.	24%	-2%	O=C1Nc2ccccc2/C1=C/c1ccc([N+](=O)[O-])cc1
0.7%	.	1%	-10%	COc1ccc(OCCNC(=O)c2ccccc2Cl)cc1
4.3%	.	2%	-24%	C=CCn1c(NCc2ccccc2OC)nc2ccccc21
-0.7%	.	-4%	-20%	O=C(CN(C(=O)c1csnn1)c1ccc(Cl)cc1)NCc1ccc2c(c1)OCO2
1.1%	.	-6%	0%	OCCC1CN(CC2CC2)CCN1Cc1ccc(F)c(F)c1 (configuration not stated)
2.3%	4	-9%	-56%	CCOC(=O)c1ccc2c(c1)[nH]c(=S)n2CC
4.0%	0	5%	-9%	O=C1N=C(N2CCOCC2)S/C1=C1\C(=O)N(Cc2ccccc2)c2ccccc21
-0.7%	.	22%	0%	CCCc1nc2nc(C)c(NS(=O)(=O)c3ccc(Cl)cc3)c(=O)n2[nH]1
0.3%	.	25%	.	CN(Cc1ccccc1)C(=O)CN1C(=O)NC2(CCCCCCC2)C1=O
3.6%	.	0%	.	Cc1ccc(C(=O)NCC(C)NC(=O)c2ccc(C)c(C)c2)cc1C (configuration not stated)
-3.9%	.	-16%	8%	COc1ccc(S(=O)(=O)NC(C)C(=O)NCc2ccccn2)cc1OC (configuration not stated)
2.0%	2	-13%	6%	O=C(c1nc2ccccn2c1CNCCCn1ncc2ccccc21)N1CCCC1
-0.7%	.	7%	.	O=C(COC(=O)/C=C/c1ccccc1)NCc1cccs1
?	-2	?	-12%	COc1cccc(C=Nc2cccc3c(=O)[nH][nH]c(=O)c23)c1O
-0.7%	.	3%	.	COc1cccc(NC(=O)CN(C)CC(=O)Nc2ccc(C)c(S(=O)(=O)N3CCOCC3)c2)c1
1.5%	.	10%	7%&5%	CN(C)c1ccc(CNS(=O)(=O)c2csc(C(N)=O)c2)cc1
-0.9%	-3	23%	-2%	Cc1cccc(/C=N/n2c(-c3ccco3)n[nH]c2=S)c1
1.5%	2	-14%	-2%	Fc1cccc(NC(=S)NCc2cccnc2)c1
-1.7%	4	-9%	2%	CCN1CCN(C(=O)C2CCC(CNS(=O)(=O)c3ccccc3)CC2)CC1 (configuration not stated)
2.6%	3	7%	5%	Cc1ccc(O)c(C(=O)c2cnc3c(c2)c(=O)n(C)c(=O)n3C)c1
-0.5%	.	1%	-17%	CC(C)CC(=O)Nc1cccc(-c2nc3ncccc3o2)c1
-1.1%	0	-8%	-3%	O=C(NCCCO)/C(=C\c1ccco1)NC(=O)c1ccc(Br)o1
0.2%	9	-6%	-3%	COc1ccccc1NS(=O)(=O)c1ccc(NC(=O)c2ccncc2)cc1
3.1%	0	5%	-1%	O=C(Cn1c(=O)n(-c2ccc(F)cc2)c(=O)c2sccc21)NC1CCCCC1
?	-15	-1%	2%	Cc1cccc(-n2nnnc2SC(C)C(=O)NCCC2=CCCCC2)c1 (configuration not stated)
?	.	-16%	-1%	CN(C)c1ccc(NC(=O)CN2CCN(c3ccc(F)cc3)CC2)cc1
0.4%	-5	1%	0%	CCc1ccc(N(C(=O)CCC(=O)Nc2cc(C)on2)C(C(=O)NC2CCCC2)c2ccco2)cc1 (configuration not stated)
-1.7%	-3	1%	2%	CCOC(=O)C1=C(C)NC(=O)NC1c1ccc(OCC(N)=O)cc1 (configuration not stated)
-1.2%	.	-2%	.	Cc1ccc(S(=O)(=O)NC2CC3CCC2C3)cc1 (configuration not stated)
-0.1%	-6	2%	-6%	CCNC(=O)COC(=O)c1sccc1C
-1.7%	5	11%	18%	COc1ccc(C2CC(C(F)(F)F)n3nc(C(=O)NCc4cn(C)nc4C)c(Cl)c3N2)cc1 (configuration not stated)

# By substructure: the compounds so far containing two or more sulfur atoms (three)
Rango-impB inh	GLA inh pH 4.5	Rango dissoc inh	miR-21 reporter	SMILES
0.5%	.	-13%	.	Cc1nc(SCC(=O)NCC2CCCO2)c2c(C)c(C)sc2n1 (configuration not stated)
1.2%	-5	-4%	0%	C[C@]12CS(=O)(=O)C[C@H]1SC(=S)N2c1ccccc1
1.5%	.	10%	7%&5%	CN(C)c1ccc(CNS(=O)(=O)c2csc(C(N)=O)c2)cc1

# (more compounds)
Rango-impB inh	GLA inh pH 4.5	Rango dissoc inh	miR-21 reporter	SMILES
0.6%	0	2%	-2%	CC(C)C(=O)Nc1ccc(N2CCN(C(=O)c3cccs3)CC2)cc1
-0.3%	.	8%	.	O=C(NCCCn1ccnc1)C1CCN(S(=O)(=O)c2cc([N+](=O)[O-])ccc2Cl)CC1
-1.4%	.	1%	.	C=CCn1c(SC(C)C(=O)c2c(N)n(C)c(=O)n(C)c2=O)nnc1-c1ccoc1C (configuration not stated)
-3.3%	.	-9%	0%	O=C(CCN1C(=O)/C(=C/c2ccco2)SC1=S)Nc1ccc(O)cc1C(=O)O
-0.2%	.	13%	0%	Cc1ccc(C23CC4CC(CC(C(=O)NC(C)C(N)=O)(C4)C2)C3)cc1 (configuration not stated)
-0.8%	-3	-2%	-7%	O=C(CSc1nnc(-c2cccs2)n1-c1ccccc1)N1CCCC1
-9.1%	.	-20%	10%	Cc1cc(Nc2cccc(Cl)c2)nc(-c2ccccc2O)n1
-0.1%	-8	2%	-4%	CS(=O)(=O)N(CC(=O)NCC1CCCO1)c1ccc(F)c(Cl)c1 (configuration not stated)
-3.0%	-1	-7%	-35%	CCOC(=O)C1CCCN(C(=O)CSCc2ccccc2)C1 (configuration not stated)
3.8%	.	11%	-10%	C=CCNC(=O)N1CCc2[nH]c3ccc(F)cc3c2C1
-0.9%	15	11%	25%	N#Cc1ccccc1COc1ccc(/C=C/C(=O)O)cc1
2.3%	.	-11%	.	COc1cccc(N2CC(NS(=O)(=O)c3ccc(Cl)cc3)CC2=O)c1 (configuration not stated)
-1.0%	-4	34%	1%	Cc1ccc(/C=C/C(=O)O)cc1S(=O)(=O)NCC1CCCO1 (configuration not stated)
1.0%	.	-7%	.	Cc1cc(C)c(NC(=O)CNC(=O)c2ccccc2SCC(=O)N2CCCC2)c(C)c1
-1.0%	.	-7%	-22%	COc1ccc(/C(O)=C/C(=O)C(=O)NNC(=O)c2ccccc2)cc1
-1.9%	-3	-8%	-1%	Cc1cccc(N2C(=O)/C(=C/c3cccnc3)SC2=S)c1
-3.6%	.	1%	.	Cc1cc(Cl)cc(C)c1OCC(=O)N1CCN(c2ncccn2)CC1
-5.0%	4	-8%	1%	CN(CCOC(=O)c1ccc2c(c1)OCO2)C(C)(C)C
-3.1%	-1	8%	-57%	COc1cc(OC)cc(-c2nnc(SCc3c(F)cccc3Cl)o2)c1
-2.7%	.	1%	0%	O=C(O)c1ccc(S(=O)(=O)c2ccc([N+](=O)[O-])cc2[N+](=O)[O-])cc1
0.1%	2	-1%	-40%	CCOC(=O)c1ccc(CNCc2ccccc2)cc1
4.1%	6	-2%	-4%	COc1cc(N=C2C(=O)N3c4c(cccc42)C(C)=CC3(C)C)cc(OC)c1
-1.2%	-3	4%	-32%	Cc1ccc(C(=O)Nc2nc3ccccc3c(=O)s2)cc1
-0.1%	4	-6%	20%	O=C(/C=C/c1ccccc1)NC(NC(=S)Nc1cccc(Cl)c1)C(Cl)(Cl)Cl (configuration not stated)

# Full records, quoted from the list. Order of screens: Rango-impB inh, GLA inh pH 4.5, Rango dissoc inh, miR-21 reporter
# COc1ccc(OCCNC(=O)c2ccccc2Cl)cc1 as listed: 0.7%, ., 1%, -10%
# COc1cccc(COC(=O)CCNC(=O)c2ccc(Cl)cc2)c1OC as listed: -1.3%, ., -22%, .

# For convenience, part of the list above:
Rango-impB inh	GLA inh pH 4.5	Rango dissoc inh	miR-21 reporter	SMILES
4.1%	6	-2%	-4%	COc1cc(N=C2C(=O)N3c4c(cccc42)C(C)=CC3(C)C)cc(OC)c1
-1.2%	-3	4%	-32%	Cc1ccc(C(=O)Nc2nc3ccccc3c(=O)s2)cc1
-0.1%	4	-6%	20%	O=C(/C=C/c1ccccc1)NC(NC(=S)Nc1cccc(Cl)c1)C(Cl)(Cl)Cl (configuration not stated)

# Next section
Rango-impB inh	GLA inh pH 4.5	Rango dissoc inh	miR-21 reporter	SMILES
-5.4%	-1	13%	-1%	O=[N+]([O-])c1ccc(NC2CCN(Cc3ccccc3)CC2)c([N+](=O)[O-])c1
?	-12	-2%	-49%	CC(=O)Nc1ccc(C(=O)CSc2nc3ccc(C)cc3[nH]2)cc1
0.7%	-2	19%	1%	CCOC(=O)c1cc(CC)sc1NC(=O)CSc1nc2ccccc2c(=O)n1Cc1ccco1
1.0%	.	3%	.	COc1cccc(CNC(=O)CSc2nc3c(oc4ccccc43)c(=O)n2CC2CCCO2)c1 (configuration not stated)

# These rows are one share of the data; count on the stated rates, not on these rows.
